Compound activity deposited in PubChem by several laboratories.
Vif TR-FRET: inhibitors of Vif binding to APOBEC3G peptide, primary screen, biochemical, TR-FRET, GST-Vif 1-94, biotin-A3G peptide, dose response retest (AID 1117319); TR-FRET GST-Vif / biotin-A3G peptide binding; higher % means a stronger effect; test concentration not given here; strong numbers were not always called active; inhibition, %, or IC50 in µM where a hit was titrated; 260,000 compounds, 0.57% hits;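 active means above the screen mean plus three standard deviations and confirmed in dose response; inconclusive means results disagree or hit not tested in dose response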;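 further: Vif residues 1-94 fused to GST binding biotinylated APOBEC3G peptide 110-148; 0% = full assay without inhibitor and 100% = GST in place of GST-Vif; retest series ran down from 100 µM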
Beta cell apopt: beta cell apoptosis inhibition; INS-1E cytokine-induced death, ATP luminescence, 48 h; percent of positive-control rescue, neutral wells zero; protection from apoptosis, % (concentration not given with the values); AID 435005; 300,000 compounds, 0.8% hits;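 active means all replicates at 75% or more, or half of them and the mean; inconclusive means half reach 75% but not the mean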;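 further: 0% = cytokine-treated negative control wells and 100% = positive control rescue; higher means more ATP so stronger rescue from cytokine killing; wells of about 40 µL received 100 nL stock; the first replicate is given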
T cruzi inh: blocks replication of Trypanosoma cruzi. 300,000 compounds, 1.4% hits. inhibition, % (concentration not given with the values). T. cruzi beta-gal in NIH3T3, luminescence, 90 h;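 active means mean inhibition across valid replicates above about 55%, limit read from the data; inconclusive means mean below that limit but half or more replicates reach it; inactive means mean below it, under half of replicates reach it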;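 further: signal also drops with host cell toxicity which is not excluded here; 0% = plate median of DMSO wells and 100% = zero luminescence signal; higher percent means less beta-gal luminescence so fewer parasites; stock transfer was 50 nL into about 50 µL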
AF4-AF9 inh: MLL-AF4/AF9 protein interaction inhibition | AlphaScreen, biotin-AF4 peptide binding to FLAG-AF9 | inhibition, % at 10 µM | P42568 | 350,000 compounds, 0.47% hits;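 active means every replicate reaching a set inhibition limit, whatever the replicate mean, cut at about 25% in these data; inconclusive means mean inhibition reaches that limit but some replicates miss it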;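 further: 0% = plate neutral control median and 100% = total signal loss; the record names both 10 and 1 µM as test concentration; the first replicate is given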
Target sequence (P42568 whole entry, looked up): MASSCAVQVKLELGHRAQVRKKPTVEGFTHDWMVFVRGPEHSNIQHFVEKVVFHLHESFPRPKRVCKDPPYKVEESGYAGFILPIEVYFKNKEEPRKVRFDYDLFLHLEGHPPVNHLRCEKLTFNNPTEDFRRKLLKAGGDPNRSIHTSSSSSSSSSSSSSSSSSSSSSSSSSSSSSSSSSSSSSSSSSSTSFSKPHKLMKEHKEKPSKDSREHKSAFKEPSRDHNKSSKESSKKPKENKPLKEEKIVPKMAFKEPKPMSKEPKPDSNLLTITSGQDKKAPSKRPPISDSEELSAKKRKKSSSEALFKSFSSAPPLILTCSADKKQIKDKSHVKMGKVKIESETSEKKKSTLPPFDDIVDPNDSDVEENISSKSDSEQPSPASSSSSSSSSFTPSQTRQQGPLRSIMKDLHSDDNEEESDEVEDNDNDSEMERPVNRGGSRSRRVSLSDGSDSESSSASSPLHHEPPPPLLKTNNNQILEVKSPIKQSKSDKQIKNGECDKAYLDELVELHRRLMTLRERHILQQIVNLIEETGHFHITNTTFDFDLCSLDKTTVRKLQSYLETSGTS
LANA-H2A inh: blocks KSHV LANA binding to histone H2A/H2B; cell-free LANA-H2A/H2B peptide, fluorescence polarization; Q9QR71; 320,000 compounds, 0.6% hits; inhibition, % (test concentration not listed); AID 2629; in the data active means inhibition mostly above about 10%, no sharp cut-off; inactive means mostly below about 6.7%;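 further: stock transfer was 7.5 nL into about 10 µL; 0% = median of vehicle wells and 100% = median of positive control wells; one replicate is shown; the record names a cut of 25% in any replicate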
Bfl-1 A1 inh: inhibitors of the anti-apoptotic protein A1, read as caspase activation | MEF A1-2A-BIM cells, Caspase-Glo 3/7 luminescence, 3 h; percent of clofoctol response, vehicle zero | caspase activation, % (concentration not given with the values) | 330,000 compounds, 0.066% hits;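 active means over half of replicate activation scores above 10%, or exactly half above 10 with the replicate mean above 10; inconclusive means replicate mean below 10 yet half the replicates above 10; inactive means over half of replicates below 10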;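 further: wells of about 30 µL received 50 nL stock; many hits fall short of the cut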
RanGTP-Impb inh: inhibitors of RanGTP-importin-beta interaction, primary screen, biochemical, FRET, CFP-Ran, YFP-importin-beta, homogeneous; cell-free CFP-Ran/YFP-importin-beta FRET ratio; inhibition, % (no concentration beside the values); 300,000 compounds, 1.1% hits;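 active means most replicates above 15%; inconclusive means exactly half above 15%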;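 further: 0% = DMSO wells and 100% = Ran loaded with GDP instead of GTP; wells of about 40 µL received 100 nL stock; the first replicate is given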
Calb FLC: affects C. albicans growth with fluconazole. growth inhibition, % (test concentration not listed). C. albicans CaCi-2 (fluconazole-resistant clinical isolate) + fluconazole, Alamar Blue growth, 48 h. 300,000 compounds, 0.57% hits;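 active means most replicates above 75%; inconclusive means exactly half above 75%; inactive means most below 75%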;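 further: all wells also contain fluconazole at 8 µg/ml as a sub-toxic cotreatment; 0% = median of DMSO wells and 100% = median of geldanamycin control wells; wells of about 8 µL received 7.5 nL stock; the first replicate is given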
Starred values were filed as active, the others as inactive; ? = inconclusive; · = not tested or not shown; & = joins results of further samples.

SMILES	Vif TR-FRET	Beta cell apopt	T cruzi inh	AF4-AF9 inh	LANA-H2A inh	Bfl-1 A1 inh	RanGTP-Impb inh	Calb FLC
c1ccc2c(-n3cccn3)cccc2c1	5%	-9	-8	·	0.2	-2.1	9.6	2
O=C(COc1cccc(-n2cnnn2)c1)NC1CCCCC1	0%	·	-5	-6.1	-0.8	1.7	-2.1	15
N#Cc1ccc(CSc2ccccn2)c(Cl)c1	·	-4	1	-0.9	-8.2	0.1	-1.4	-7
CCN(CC)C(=O)Cn1c(=O)n(-c2ccc(CC(=O)NCc3ccccc3)cc2)c(=O)c2sccc21	7%	-7	-3	-4.1	-0.4	0.0	0.0	0
CCOc1cccc(Nc2ccc([N+](=O)[O-])cn2)c1	·	2	26	4.0	-0.5	0.4	2.3	-11
COC(=O)c1cc(OC)c(OC)cc1NC(=O)C1CCC(=O)N1S(=O)(=O)c1ccc(C)cc1 (stereo not drawn)	1%	2	-13	·	0.5	0.1	-4.8	-1
C=CCn1c(=N)c(C(=O)NCCCOC)cc2c(=O)n3cc(C)ccc3nc21	3%	-5	-12	·	1.0	1.1	2.2	-14
N#C/C(=C\c1ccc[nH]1)C(=O)Nc1ccccc1[N+](=O)[O-]	13%	-10	9	-2.3	7.4	-1.6	-4.1	-5
Cc1cccc(C)c1-n1c(C)nn(CC2CC2)c1=O	-16%	-10	-1	0.7	-0.9	0.2	2.2	-5
CC(=O)N(C)c1ccc(NC(=O)Cc2cccc3ccccc23)cc1	·	-12	8	-0.7	-7.1	0.1	8.7	2
O=C(CN1C(=O)c2ccccc2C1=O)NNC1=NS(=O)(=O)c2ccccc21	1%	-2	2	-0.6	-5.2	-0.2	-0.6	1
Cc1ccccc1C(=O)NC1CC(C)(C)NC(C)(C)C1	17%	-1	5	·	4.2	0.9	1.4	2
Cn1ccc(C(=O)Oc2ccc(C(=O)Nc3ccc(F)cc3F)cc2)n1	0%	5	-17	-0.1	-6.9	-9.6	1.7	-20
COc1ccc(CN(C)C(=O)c2cccc(C(=O)N(C)Cc3ccc(OC)cc3)c2)cc1	-6%	6	-2	-0.3	4.0	-0.7	3.2	-2
CCNC(=O)CN(c1ccc(Cl)cc1)S(=O)(=O)c1ccccc1	19%	-1	-3	·	2.6	-0.4	-3.2	0
Cc1cc2cc(CNC(=O)CC(C)C)ccc2n1C	13%	3	-10	·	-6.4	0.1	0.0	1
O=C(CSc1nc2c(sc3ccccc32)c(=O)n1Cc1ccco1)NCC1CCCO1 (stereo not drawn)	0%	13	6	·	1.0	-0.6	1.0	8
CCn1c(SCC(=O)NC2CCCCC2)nnc1-c1cccnc1	·	1	-3	-0.4	4.5	-0.2	·	·
Cc1ccccc1-n1nc2c(c1NC(=O)C1CCCC1)CS(=O)(=O)C2	·	-2	3	-2.3	2.6	1.7	-0.1	1
COc1ccccc1-c1nnc(NC(=O)CCS(=O)(=O)c2ccccc2)o1	2%	-10	5	-1.3	-3.1	-1.4	1.0	9
COc1ccc(CC(=O)OCC(=O)Nc2c(C)n(C)n(-c3ccccc3)c2=O)cc1	-7%	-2	-15	·	10	0.1	2.6	-5
CCCCn1c(SCC(=O)N2CCC(C(=O)OCC)CC2)nc2cc(S(N)(=O)=O)ccc21	-3%&4%	-1	8	·	4.1	1.5	-2.6	-1
O=C1NC(Cc2ccccc2)c2nc3ccccc3c(=O)n2-c2ccc(Cl)cc21 (stereo not drawn)	·	-6	·	1.1	-1.8	0.4	·	·
CCOc1ccc(NC(=O)COc2ccc(C(=O)NCCc3ccccc3)cc2)cc1	·	2	13	0.5	-0.5	-0.2	0.0	-16
CCCC1(C(=O)OCC)NC(c2ccc(OC)cc2OC)C2C(=O)N(c3ccc4c(c3)OCCO4)C(=O)C21 (stereo not drawn)	-1%	·	-6	·	4.7	0.4	?	16
Cn1ccnc1SC(=O)N1c2ccccc2Sc2ccccc21	-7%	2	8	·	0.8	0.3	1.2	7
O=C(NCCCn1ccnc1)C(=O)NCC1OCCN1S(=O)(=O)c1ccc(Cl)cc1 (stereo not drawn)	-3%	2	-28	-3.0	3.4	-0.5	-2.0	5
COc1cccc(C2C([N+](=O)[O-])=C(N)Oc3cc(C)oc(=O)c32)c1 (stereo not drawn)	20%	-2	-8	-4.9	-0.2	0.6	-2.6	-3
C[C@@H]1CC=C[C@H]2[C@H]1C(=O)N(Cc1ccccc1)[C@H]2c1ccc2ccccc2c1Br	-6%	·	46	-0.1	·	·	4.6	8
COCc1cc(C)nc(NC2CC(C)(C)NC(C)(C)C2)c1C#N	·	-5	-9	-0.7	-0.9	0.8	-3.5	-11
O=C(Nc1ccc2oc(-c3cccnc3)nc2c1)c1ccco1	18%	-1	-10	·	-0.8	-0.5	-4.3	2
Cc1ccc(OCC(=O)NCc2cccnc2)cc1	·	-5	-1	2.7	-6.1	0.8	-0.2	-14
N#Cc1cccnc1Nc1cccc(Cl)c1	5%	-6	-2	-0.9	3.1	0.6	-0.1	-8
COc1cc(NS(=O)(=O)c2ccc(NC(=O)COc3ccccc3C)cc2)nc(OC)n1	?	-1	?	·	0.2	0.6	-0.1	30
CCOc1ccccc1NC(=O)C(c1ccccc1)N1CCN(C(=O)c2ccco2)CC1 (stereo not drawn)	·	12	·	3.7	5.9	-0.4	·	·
FC(F)(F)c1cc(-c2ccc(Cl)cc2)nc(NCc2cccnc2)n1	3%	6	70*	-4.6	-3.2	0.1	3.4	1
CN(C)S(=O)(=O)c1ccc(N2CCCC2)c(C(=O)Nc2ccc(N3CCOCC3)cc2)c1	0%	-5	-3	·	-1.9	-1.0	-1.0	5
Cc1nc2cc(-c3cccc(F)c3)nn2c(N2CCN(C(=O)c3ccco3)CC2)c1C	-12%	27	18	·	0.3	-1.4	?	13
NS(=O)(=O)c1ccc(CCNC(=S)Nc2ccc(S(N)(=O)=O)cc2)cc1	-8%	-1	-16	·	2.6	0.5	?	6
Cc1cccc(C(=O)NCCNC(=O)c2ccco2)c1	·	-4	-1	-1.9	7.6	-0.2	0.4	-13
CSc1ccc(CN2C(=O)NC3(CCCCCCC3)C2=O)cc1	1%	-4	27	0.9	-0.1	0.0	-0.3	0
COc1ccc(Br)cc1/C=N/NC(=O)CNC(=O)C1COc2ccccc2O1 (stereo not drawn)	·	-2	2	-3.2	2.4	-0.4	-4.3	-36
O=C(CN1C(=O)/C(=C\c2ccc(C(F)(F)F)cc2)Sc2ccccc21)NCc1ccco1	·	12	14	·	-0.5	-0.7	9.5	-8
CC1(C)CC(=O)C2=C(C1)Nc1[nH]n(-c3ccccc3)c(=O)c1C2c1ccc2c(c1)OCO2 (stereo not drawn)	5%	·	-10	·	·	·	-1.1	3
Cc1ccc(Nc2nc(C)cs2)cc1	14%	2	-3	-3.8	-1.1	-3.5	-1.5	-26
CCOC(=O)c1ccc(Cn2cnc3ccccc3c2=O)cc1	-4%	-1	-6	·	-0.7	0.1	-1.9	7
CC(C)Oc1cccc(C(=O)C2CCCN(Cc3cnc(N4CCOCC4)s3)C2)c1 (stereo not drawn)	4%	-2	59*	4.4	-4.1	-0.5	-1.3	-5
CO/N=C/NC(=O)c1c(OC)ccnc1Oc1ccc(F)cc1	17%	0	-10	0.9	-3.7	-0.2	3.6	-31
O=C(O)c1cccc(N/N=C/c2sc(N3CCOCC3)nc2-c2ccccc2)c1	·	4	0	·	·	-0.6	5.4	-2
COc1ccc(C)cc1NS(=O)(=O)c1ccc2c(c1)oc(=O)n2C	·	-8	-4	-2.7	0.4	-0.3	0.4	-1
O=C(Nc1ccccc1)c1ccc(Br)c(S(=O)(=O)Nc2ccccn2)c1	-2%	-4	4	-2.5	-2.7	1.2	-2.5	10
CSCCC(=O)N1CCCC(N2CCN(c3cccc(C(F)(F)F)c3)CC2)C1 (stereo not drawn)	-6%	-3	5	1.5	0.1	0.3	-0.2	1
Cc1nc2ccccc2n1CC(=O)c1ccc(O)c(O)c1	·	2	·	-14	4.7	-0.9	·	·
CN1CCN(C(=O)c2ccc3c(c2)N(Cc2ccccc2F)C(=O)c2ccccc2S3=O)CC1 (stereo not drawn)	·	0	4	-6.9	-0.3	0.1	-0.7	-4
COCCCNC(=S)NC1CC2CCCC(C1)N2Cc1ccco1 (stereo not drawn)	-1%	2	-22	·	-7.8	0.8	1.3	-4
O=C(O)/C=C/C(O)c1ccc(Cl)cc1 (stereo not drawn)	·	0	·	-3.6	7.0	0.5	·	·
CCn1c(SCC(=O)c2cccs2)nnc1-c1ccco1	17%	2	-14	·	0.7	0.2	4.5	9
Cc1ccc(NC(=O)c2cc(-c3cccs3)on2)cc1	-9%	6	-2	·	-2.8	-1.3	2.1	-9
COc1cccc(-n2nc(C(C)=O)c(C#N)c2-c2ccco2)c1	·	1	2	0.1	4.8	0.6	-0.3	5
O=C(O)C1CCCCC1C(=O)OCCCCOC(=O)C1CCCCC1C(=O)O (stereo not drawn)	12%	-6	2	·	-4.6	0.7	-2.8	-5
More records follow.
SMILES	Vif TR-FRET	Beta cell apopt	T cruzi inh	AF4-AF9 inh	LANA-H2A inh	Bfl-1 A1 inh	RanGTP-Impb inh	Calb FLC
Cc1cnc(NC(=O)CSc2ncn(-c3ccccc3)n2)s1	-1%	·	-6	·	-4.6	-0.3	2.3	15
Cc1ccc(CNC(=O)C(=O)NCCC2CCCCN2S(=O)(=O)c2cccs2)cc1 (stereo not drawn)	1%	·	10	-75	1.9	0.1	-4.6	5
COc1ccccc1OCc1ccc(C(=O)N2N=C(C(F)F)CC2(O)C(F)F)o1 (stereo not drawn)	6%	-1	2	·	-2.6	0.7	-2.2	4
O=C1c2ccccc2S(=O)(=O)c2cc(N3CCC(C(=O)N4CCCCC4)CC3)ccc21	·	10	16	-7.0	1.7	-0.4	-128	15
COc1cccc(NC(=O)CC(=O)c2ccc([N+](=O)[O-])cc2)c1	-4%	6	-8	3.9	-2.7	-5.1	-1.8	12
CCOC(=O)CC1CCCCN1C(=O)CCCn1nnnc1CN1CCC(C)CC1 (stereo not drawn)	8%	-3	14	-2.1	-4.4	-0.4	7.1	2
O=C(NC(=S)Nc1ccc(CN2CCOCC2)cc1)c1cccc([N+](=O)[O-])c1	4%	6	-3	·	-1.4	2.4	2.9	-4
Cc1cccc(-c2ccc3ncnc(NCc4cccnc4)c3c2)c1	·	-13	·	-6.5	1.2	-0.7	·	·
COCCN1CCN(Cc2cn(C)nc2-c2cccc(Cl)c2)CC1	·	·	-6	-0.9	0.0	-0.2	9.3	6
O=C(Nc1ccc2c(c1)C(=O)N(C1CCCCC1)C2=O)C1CCCO1 (stereo not drawn)	-4%	1	-3	·	-2.5	-2.3	6.5	7
CCc1ccc(C2CC(c3ccco3)=NN2S(C)(=O)=O)cc1 (stereo not drawn)	2%	6	-5	·	3.3	-6.4	-2.9	7
